Screening results deposited in PubChem by National Center for Advancing Translational Sciences (NCATS).
Six1-Eya2 inh – Six1/Eya2 interaction inhibition; activity change, % (test concentration not listed); 360,000 tested, 0.56% active; AlphaScreen GST-Six1/His-Eya2 binding, biochemical; active compounds read low; control for the full effect not named in the record; in the data active = activity change below about -65%; inconclusive = about -30% to -65%; inactive = above about -30%; further: on the % scale 0 is the no-effect control and ±100 the full control effect
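Homogeneous AlphaScreen proximity assay pairing GST-Six1 with His-tagged Eya2 (added as 5X mix: 250 nM and 500 nM) in 50 mM Tris pH 8.0, 300 mM NaCl, 1 mM TCEP. Glutathione donor and nickel acceptor beads; 1 h, 37 °C, dark.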
D2 agonist – agonists of human D2 dopamine receptor (beta-arrestin) | DiscoveRx PathHunter D2 beta-arrestin, luminescence, 90 min; 100% = 57 uM dopamine signal | activation, % (concentration not given with the values) | 360,000 tested, 0.084% active | AID 624465; in the data active = activation above about 40%; inconclusive = about 15% to 40%; inactive = below about 15%; further: compound concentration not given in the record; the text of the record calls up to 30% inactive
Target sequence (P14416 whole entry, looked up): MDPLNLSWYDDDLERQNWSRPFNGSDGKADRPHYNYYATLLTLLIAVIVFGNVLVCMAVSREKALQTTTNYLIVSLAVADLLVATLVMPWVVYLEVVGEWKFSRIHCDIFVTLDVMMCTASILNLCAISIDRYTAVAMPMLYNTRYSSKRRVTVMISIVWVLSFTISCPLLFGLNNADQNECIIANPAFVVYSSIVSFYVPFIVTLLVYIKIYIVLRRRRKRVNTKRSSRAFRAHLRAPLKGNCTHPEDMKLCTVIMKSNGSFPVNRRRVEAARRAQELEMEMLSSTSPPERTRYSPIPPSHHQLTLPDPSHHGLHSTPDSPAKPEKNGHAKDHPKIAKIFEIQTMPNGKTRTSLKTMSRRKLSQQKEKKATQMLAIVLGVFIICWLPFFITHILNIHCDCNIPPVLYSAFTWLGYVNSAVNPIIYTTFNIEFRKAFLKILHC
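DiscoveRx PathHunter D2 beta-arrestin cells (2,100/well) attached overnight, then compound-stimulated 90 min at 37 C in HBSS/10 mM HEPES/0.1% Tween-20 buffer; beta-galactosidase complementation read by luminescence after 1 h at ambient temperature. Dopamine 57 uM final (EC100) as control.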
CtBP-E1A inh – blocks the CtBP interaction with E1A; AlphaScreen GST-E1A/His-CtBP binding, 1536-well; active compounds read low; control for the full effect not named in the record; activity change, % (no concentration beside the values); 340,000 tested, 0.49% active; in the data active means activity change below about -65%; inconclusive means about -30% to -65%; inactive means above about -30%; further: on the % scale 0 is the no-effect control and ±100 the full control effect
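In 5 uL wells, 23 nL compound meets equimolar GST-E1A and His-CtBP (5X stock 125 nM each) for 2 h, 37 °C. Beads (5X, 50 ug/mL) then 1 h, 37 °C, dark.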
TRPML1 blocker – inhibitors of human TRPML1 channel | Q9GZU1 | TRPML1-inducible cells, Ca2+ dye fluorescence, FDSS; active compounds read low; inhibition of EC80 agonist-evoked calcium signal | activity change, negative = inhibition, % (no concentration beside the values) | 390,000 tested, 0.02% active; in the data active means activity change below about -50%; inconclusive means about -30% to -50%; inactive means above about -30%;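 further: stimulus is agonist 54-4 at its EC80 concentration; on the % scale 0 is the no-effect control and ±100 the full control effect; compound concentration not given in the record; the text of the record puts the active cut at -80%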
Target sequence (Q9GZU1 whole entry, looked up): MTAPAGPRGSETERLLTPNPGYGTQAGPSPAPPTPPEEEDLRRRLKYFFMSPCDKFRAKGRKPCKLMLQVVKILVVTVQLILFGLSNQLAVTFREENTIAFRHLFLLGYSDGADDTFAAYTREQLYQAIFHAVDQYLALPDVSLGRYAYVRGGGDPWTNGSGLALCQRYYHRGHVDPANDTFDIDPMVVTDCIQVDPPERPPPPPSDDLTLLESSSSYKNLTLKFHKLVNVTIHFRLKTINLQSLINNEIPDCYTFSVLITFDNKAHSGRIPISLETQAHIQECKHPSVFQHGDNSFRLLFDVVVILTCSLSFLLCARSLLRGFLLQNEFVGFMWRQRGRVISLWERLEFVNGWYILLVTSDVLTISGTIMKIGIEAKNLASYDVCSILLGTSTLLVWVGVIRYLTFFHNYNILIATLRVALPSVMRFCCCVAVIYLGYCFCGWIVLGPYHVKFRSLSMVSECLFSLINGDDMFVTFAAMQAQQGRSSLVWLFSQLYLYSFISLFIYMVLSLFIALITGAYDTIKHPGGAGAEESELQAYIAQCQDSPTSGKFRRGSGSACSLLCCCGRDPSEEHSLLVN
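TRPML1-DL cells, Tet-induced overnight (~16 h, 37 °C) at 1,500 cells/well, were loaded with Ca8 no-wash dye plus quencher for 45-90 min at room temperature. Compounds were pinned during FDSS kinetic reading; agonist 54-4 at EC80 (4 uM final) then added.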
TRPML1 agonist – agonists of human TRPML1 channel; Q9GZU1; 410,000 tested, 0.12% active; activation, % (test concentration not listed); TRPML1-expressing cells, Ca2+ dye fluorescence, FDSS; host cell line not named in the record; reference of the full effect not given here; in the data active = activation above about 50%; inconclusive = about 30% to 50%; inactive = below about 30%; further: 0% is about no effect; the text of the record puts the active cut at 80%
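Tetracycline-induced TRPML1-DL cells are seeded and incubated overnight before loading with a no-wash Ca2+ dye and quencher. Agonist activity is taken from the 110 s fluorescence read following compound pin-transfer on an FDSS, before EC80 54-4 challenge.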
PINK1 expr mod – PINK1 expression modulation; PINK1 immunofluorescence, high-content cytometry, 24 h; Potency, µM (series often up to 76.6 µM), without a hit: at the highest dose activation (PINK1 increase), hits mostly activators; 410,000 tested, 0.2% active; AID 624263; active = well fitted activation curve with a large enough effect; inconclusive = small, poorly fitted or top-dose-only effect; inactive = flat fitted curve, though single readings scatter; cell line not stated here;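 further: potency means the concentration at half of the fitted maximal effect; % of control where 0% means no effect; nearly all actives have a fitted effect of over 65% in size; a mitochondrial uncoupler was the plate control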
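PINK1 protein level read as immunofluorescence by microplate cytometer in a fixed, stained stable cell line after 24 h exposure to five compound concentrations, with CCCP as control.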
Starred values were filed as active, the others as inactive; ? = inconclusive; · = not tested or not shown; [ ] = remark or other dose.

structure	Six1-Eya2 inh	D2 agonist	CtBP-E1A inh	TRPML1 blocker	TRPML1 agonist	PINK1 expr mod
CCCCn1c(O)c(N=NC(=O)Cn2c(C(F)(F)F)nc3ccccc32)c2ccccc21	4.2	-4.2	-6.2	8.5	1.9	?
COc1ccc(C(=O)NNC(=O)Cn2nc(C)cc2C)cc1S(=O)(=O)N1CCOCC1	-13.1	-6.7	?	-4.0	-0.5	0.7%
CCCSc1nc(-c2ccccc2)cc(C(F)(F)F)c1C#N	10.5	0.6	3.9	0.1	1.7	1.5%[38.3 µM]
COc1cccc(NC(=O)C2CCN(S(=O)(=O)c3ccc4c(c3)N(C(C)=O)CCO4)CC2)c1	-4.5	-1.1	-14.3	-10.8	-0.7	1.4%
CCOc1ccccc1N1CCN(Cc2ccco2)CC1	-14.2	2.4	-11.2	-12.8	-0.3	1.6%[38.3 µM]
COc1ccc(CNC(=O)CCc2ccc(S(=O)(=O)N3CCCCCC3)cc2)cc1	0.4	-1.2	3.0	1.1	-0.2	0.6%
COc1ccc(OCC(NS(=O)(=O)c2ccc(-n3cnnn3)cc2)C(C)C)cc1 (stereo not given)	-0.3	5.5	0.9	50.9	-1.0	-0.2%
OCc1c(Cl)nc2ccccn12	5.9	3.8	8.7	-2.8	1.6	-0.4%
Cc1ccc(-c2cnc(C(O)c3cccc(C)c3C)[nH]2)cc1 (stereo not given)	-9.7	-3.7	-4.6	·	-1.0	2.9%
CCOC(=O)c1cnc2c(Cl)c(Cl)ccc2c1N1CCN(C)CC1	-4.8	-3.4	-1.0	-1.9	-0.1	-0.4%
COc1ccc(CC(=O)N/N=C(\C)CC(=O)Nc2ccc(N(C)C)cc2)cc1	-15.8	-3.1	-6.3	-13.5	-0.2	-0.7%
Cc1cccc(N=C/C(C(=O)C(F)(F)F)=C(\O)c2ccco2)c1	0.3	-3.3	-12.4	7.1	2.0	1.3%
COc1ccc(-c2csc(NC(=O)COc3ccc(N(C)S(=O)(=O)c4ccc(C)cc4)cc3)n2)cc1	4.5	4.2	-8.5	-1.5	0.4	0.1%
CCc1c2ccccc2nn1-c1ccccc1C(=O)C(C)=O	-0.9	-0.4	-27.8	-13.8	0.3	0.3%
O=P(OC1CCCCC1)(OC1CCCCC1)C(Nc1ccccc1)c1cccnc1 (stereo not given)	3.0	-3.4	6.1	13.6	3.8	-1.1%
COC(=O)c1scc(-c2ccc(C)cc2)c1S(=O)(=O)Nc1ccc(NC(C)=O)cc1	·	·	·	-9.7	0.1	6.7%
CCn1c(SC)nnc1-c1ccc(S(=O)(=O)N2CCCCC2)cc1	-0.9	-2.0	4.5	14.3	0.1	?
CCC(=O)N1CCN=C1SCc1c(F)cccc1Cl	0.6	-5.1	6.3	-14.1	1.5	0.8%
CCNS(=O)(=O)c1ccc(NS(=O)(=O)c2cc(C)ccc2C)cc1	2.0	1.2	7.6	-1.4	0.8	0.4%
O=C(C1=C(O)C(=O)N(Cc2ccco2)C1c1cccs1)c1cccs1 (stereo not given)	3.6	0.6	1.4	19.5	1.0	4.3%
NS(=O)(=O)c1ccc(NC(=O)NC2CCCCC2)cc1	1.8	-4.6	2.9	-5.6	-0.6	-0.7%
Cc1cccc(NC(=O)CCN2CC(C)CC(C)C2)c1 (stereo not given)	0.7	-4.5	2.4	-5.1	-0.1	0.5%
NC(=O)c1ccc(F)cc1	6.1	-0.4	3.9	-14.5	0.6	9.8%[38.3 µM]
COc1ccc(C(=O)NCc2ccncc2)cc1OC	7.0	-1.6	0.4	-10.1	-0.9	1.1%
COc1cc(N)ccc1NC(=O)c1cc2ccccc2o1	-0.9	-3.3	·	2.4	-0.9	0.1%
COc1ccc(NC(=O)CSCC(=O)Nc2cccc3ncccc23)cc1	0.1	-7.0	11.6	-5.9	-0.2	-0.6%
CCOc1ccc(N(C(=O)c2ccccc2F)S(=O)(=O)c2ccc3c(c2)n(C)c(=O)n3C)cc1	·	·	·	30.8	2.1	6.7%
O=C(N/N=C/c1c(O)ccc2ccccc12)Nc1ccccc1	-1.5	-0.4	·	8.3	0.7	11.6%
COc1ccc(-c2cc3nc(C)cc(-c4ccc(OC)cc4)n3n2)cc1	45.7	-1.0	73.4	40.2	1.5	7.9%
CC(NC(=O)c1ccco1)c1cccc2ccccc12 (stereo not given)	-2.1	1.8	0.0	-1.1	0.0	-1.7%
CCOc1cc2[nH]c(=S)n(C3CC3)c(=O)c2cc1OCC	-7.6	2.9	-9.3	-13.0	-0.4	2.5%
CCOC(=O)c1c(C)[nH]c(C)c1S(=O)(=O)N(C)CC(=O)Nc1ccccc1	-3.0	-11.5	·	-5.8	1.0	0.2%
Cn1cccc1CN1CCC[C@]2(N[C@H](c3ccccc3)[C@@H]3C(=O)N(Cc4ccccc4)C(=O)[C@@H]32)C1=O	-9.5	-2.9	1.4	-3.4	-0.7	1.3%
C=CCN1CN(S(=O)(=O)c2ccc(OC)cc2)c2nc3ccccc3nc21	1.6	1.7	-3.6	23.4	1.3	1.0%
Cc1c(NS(=O)(=O)c2cc(NC(=O)CCN3CCCC(C)C3)ccc2Cl)c(=O)n(-c2ccccc2)n1C (stereo not given)	4.0	-3.8	4.9	12.2	1.1	4.0%
CCOc1ccc(CNS(=O)(=O)c2c(C)nc3sccn3c2=O)cc1OC	6.7	-7.4	1.6	-6.0	-0.8	1.0%
CCc1ccc(NC(=O)CSc2nnc(C3CC3)n2CC2CCCO2)cc1 (stereo not given)	6.1	-6.7	13.4	-7.5	-1.4	6.1%
O=C(N/N=C/C1CCCCC1)c1cc(Cl)ccc1O	-23.9	-2.8	-11.8	-4.7	0.3	1.0%
Cc1ccc(CCNC(=O)c2nc(CS(=O)(=O)c3ccc(Cl)cc3)no2)cc1	0.1	2.4	6.1	-1.9	-0.8	4.0%
Fc1ccccc1/C=C1\CCCC2=C1Nc1nnnn1C2c1ccccc1F (stereo not given)	-0.3	-0.9	4.9	30.8	0.2	?
Cn1c2c(c(=O)n(C)c1=O)CN(Cc1ccc(F)cc1)CN2	15.0	-1.6	-4.5	5.7	0.7	0.2%
CCOC(=O)C1CCc2nc3ccccc3c(=O)n21 (stereo not given)	7.5	-4.0	2.6	33.7	-0.5	-2.5%
Cc1ccc(S(=O)(=O)N2CCN(C(=O)COC(=O)CSc3cc(C)ccc3C)CC2)c(C)c1	-1.1	1.7	-11.7	-12.8	2.3	-0.7%
Cc1cc(CN(Nc2ccccc2)c2ccccc2)cc(C)n1	-14.7	6.7	3.4	21.2	3.0	1.6%
COC(=O)N/N=C/c1cc(C)n(-c2cccc3ccccc23)c1C	-11.8	-0.1	-3.1	46.3	2.8	?
O=C(O)CCN1C(=O)/C(=C\c2ccc(-c3nc4ccccc4s3)o2)SC1=S	?	-1.9	-75.3*	1.9	-0.5	10.1%
COc1cc(/C=C/C(=O)O)cc(S(=O)(=O)NNC(=O)c2ccc3c(c2)OCO3)c1OC	-3.1	-0.1	-3.9	5.7	0.1	1.9%
O=C(COc1ccc(C(F)(F)F)cc1[N+](=O)[O-])Nc1cccc(C(F)(F)F)c1	2.1	-2.5	6.9	8.5	-0.4	1.5%

At a glance, 2 of the compounds above:
structure	Six1-Eya2 inh	D2 agonist	CtBP-E1A inh	TRPML1 blocker	TRPML1 agonist	PINK1 expr mod
COc1cc(/C=C/C(=O)O)cc(S(=O)(=O)NNC(=O)c2ccc3c(c2)OCO3)c1OC	-3.1	-0.1	-3.9	5.7	0.1	1.9%
O=C(COc1ccc(C(F)(F)F)cc1[N+](=O)[O-])Nc1cccc(C(F)(F)F)c1	2.1	-2.5	6.9	8.5	-0.4	1.5%

Continuation:
structure	Six1-Eya2 inh	D2 agonist	CtBP-E1A inh	TRPML1 blocker	TRPML1 agonist	PINK1 expr mod
CCSc1nnc(NS(=O)(=O)c2ccc(C)cc2)s1	-7.4	-1.7	5.5	-0.7	0.3	-0.5%
CSc1ncc(C(=O)NCc2ccccc2F)c(-c2ccccc2)n1	·	·	·	-5.8	0.6	10.4%
COc1cc(/C=C(\NC(C)=O)C(=O)NC(C)(C)C)ccc1OC(C)=O	-2.3	-7.7	-4.1	6.3	-1.5	-1.8%
S=c1[nH]nc(-c2cc(-c3ccsc3)n[nH]2)n1-c1cccc2ccccc12	-12.5	6.1	?	7.9	0.7	-1.3%
O=C(CSc1nc2ccccc2[nH]1)N/N=C/C=C/c1ccccc1[N+](=O)[O-]	4.9	-4.8	6.9	3.0	-0.5	0.8%
Cc1c(C(=O)Nc2ccccc2)sc2ncn(CC(=O)N3CCCCC3)c(=O)c12	-5.5	-1.7	1.6	6.6	-0.1	-1.2%
CC(C1CCN(Cc2nc(C3CC3)no2)CC1)N1CCOCC1 (stereo not given)	5.6	-1.9	-5.6	-0.8	-0.2	0.8%
CCn1ccc(-c2ccccc2)c(C#N)c1=O	-2.2	-2.7	-3.6	6.4	-1.1	-1.2%
COc1ccc(N2CCN(C3CCCN(C(=O)CN4CCCCC4=O)C3)CC2)cc1 (stereo not given)	1.3	-2.3	-6.1	-16.6	-0.1	0.4%
CCn1c(=O)c2sccc2n2c(CCC(=O)Nc3ccc(OC)cc3OC)nnc12	·	·	·	-6.3	-0.8	-0.2%
COC(=O)CCCC(=O)Nc1c(F)c(F)c(F)c(F)c1F	1.0	-0.8	4.8	-4.1	-0.7	5.9%[38.3 µM]
Cc1ccc(NC(=S)NNC(=O)Cn2nc(C(F)F)cc2C(F)F)cc1	5.3	-0.9	-8.0	-1.1	-0.7	-0.7%
COc1ccccc1NC(=O)C(C)N(C)CCOc1ccccc1 (stereo not given)	-5.2	-1.6	20.6	5.4	6.3	-0.3%
NCCSc1c(-c2ccccc2)[nH]c2ccccc12	1.6	-6.8	-25.1	-8.4	0.0	5.0%
Nc1ccc2c(c1)C(=NO)c1cc([N+](=O)[O-])ccc1-2	?	-4.6	7.8	-0.4	4.5	-1.1%
COc1cc(S(=O)(=O)Nc2ccc(C)cc2)ccc1N=Cc1c(C)[nH]n(-c2ccccc2)c1=O	?	1.3	?	-5.3	0.6	4.2%
CCOC(=O)C1=C(COC(=O)/C=C/c2ccccc2F)NC(=O)NC1C (stereo not given)	4.2	6.9	6.8	-7.6	1.4	2.8%
CCc1nc2ccc(C(=O)N3CCCC(C(N)=O)C3)cn2c1N(CCC(C)C)CCN(C)C (stereo not given)	1.4	-3.3	0.2	6.5	0.1	-0.8%
Cc1nnc(SCC(=O)NC2CCS(=O)(=O)C2)n1-c1ccccc1 (stereo not given)	-4.2	-5.1	1.8	12.1	-0.1	-0.1%
CCCn1c(N2CCN(S(=O)(=O)Cc3ccccc3)CC2)nc2ccccc21	13.1	9.3	0.0	15.7	1.4	5.1%
